Screening results (PubChem BioAssay)
LANA-nucl inh: LANA-nucleosome interaction inhibition; FITC-LANA1-23 / chicken nucleosome fluorescence polarization; hits give low values; AID 720717; 51,000 compounds, 0.3% hits; z-score (concentration not given with the values);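 active = both repeat wells score below -2 in polarization z-score versus plate sample wells, excluding overly bright wells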;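 also: 100 nL library stock added to about 30 µL; numbers are from one replicate; some results filed as inactive read as strong as hits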
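Material: Purified chicken nucleosomes with FITC-labelled LANA N-terminal peptide (1-23) | Reagent: 50 nM FITC-LANA1-23 probe | Medium: TEN-BT buffer, pH 7.5 | Times: 10–45 min incubation at room temperature | Detection: Fluorescence polarization | Replication: Duplicates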
Ab BasE inh: BasE siderophore biosynthesis inhibition; 84,000 compounds, 0.1% hits; AID 485350; purified BasE, fluorescence polarization binding displacement; inhibition, % (no concentration beside the values);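 active = both replicates above 25% with normal brightness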;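 also: 0% = negative plate control signal and 100% = positive plate control signal; stock transfer was 100 nL into about 30 µL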
The depositor's hits bear a star; / = no result given; & = joins results of further samples. Some of the compounds tested; count on the stated rates, not on these rows.

SMILES	LANA-nucl inh	Ab BasE inh
COc1ccc(C=C(C#N)C#N)c2ccccc12	-0.31	0.8
CCCCNC1N=C(c2ccccc2)c2ccccc2N(C)C1=O (stereo not given)	0.4	/
C[C@@H]1CC[C@H]2[C@@H](C)C(=O)O[C@@H]3O[C@@]4(C)CC[C@@H]1[C@]32OO4	-0.7	/
Cc1nc(-c2ccccc2)nc(OC(=O)N(C)C)c1Oc1cccc(C(F)(F)F)c1	/	1.8
C=CCOC(=O)C1C2NC(=S)N(CCCOC)C1(C)Oc1c(OCC)cccc12 (stereo not given)	0.36	-0.3
Oc1ccc(Cl)cc1	0.11&0.084	-0.3
CC#CCNC1CCCCC1	0.22	2.2
CC[n+]1c(-c2ccccc2)c2cc(N)ccc2c2ccc(N)cc21	-6*	3.8
O=C1CC[C@@]2(O)[C@H]3Cc4ccc(O)c5c4[C@@]2(CCN3CC2CC2)[C@H]1O5	0.12&0.51	-5.3
CC(N)Cc1ccco1 (stereo not given)	0.5	4.3
OC1C2CCCC1C(N1CCCCC1)CC2 (stereo not given)	-0.015	1.3
CN(C)C(=Nc1ccc(I)cc1)P(=O)(N(C)C)N(C)C	/	0.8
Cc1c(P(=S)(N2CCOCC2)N2CCOCC2)cc(C#N)n1C	/	2.6
CCn1cc(CC(C)N)c2ccccc21 (stereo not given)	0.45	-0.8
CCOC(=O)C1=C(N)Oc2n[nH]c(C)c2C12C(=O)N1c3c(cc(C)cc32)C(C)CC1(C)C (stereo not given)	0.55	0.0
CC(N)Cc1cn(Cc2ccccc2)c2ccccc12 (stereo not given)	-1.1	0.0
Cc1nn(C)c(C)c1P(=S)(N(C)C)N(C)C	/	0.1
CC(C)(c1ccc(OCC2CO2)cc1)c1ccc(OCC2CO2)cc1 (stereo not given)	0.068	-0.7
CC(C)c1ccc(-n2c(=O)[nH]c3ccccc3c2=O)cc1	/	3.0
C=CCn1cc(C=C2C(=O)NC(=O)NC2=O)c2ccccc21	-2.5*	3.5
COc1ccc(N2CCN(C(=O)CN3CC=C(c4ccccc4)CC3)CC2)cc1	/	-5.2
O=S(=O)(c1ccc(Cl)cc1Cl)N1CCCC1c1cccnc1 (stereo not given)	0.55	/
O=C(Nc1ccc(C(F)(F)F)cc1)OC1CN2CCC1CC2 (stereo not given)	-0.44	/
COc1ccc2nc(NC(=O)CN3CC4CC(C3)c3cccc(=O)n3C4)sc2c1 (stereo not given)	1.5	-6.0
O=C(CCCN1CCC2(CC1)C(=O)NCN2c1ccccc1)c1ccc(F)cc1	-0.065&-0.36&-1&0.45	-0.5&0.8

3 entries picked at random from those above, as already listed:
SMILES	LANA-nucl inh	Ab BasE inh
C[C@@H]1CC[C@H]2[C@@H](C)C(=O)O[C@@H]3O[C@@]4(C)CC[C@@H]1[C@]32OO4	-0.7	/
COc1ccc(N2CCN(C(=O)CN3CC=C(c4ccccc4)CC3)CC2)cc1	/	-5.2
Cc1nn(C)c(C)c1P(=S)(N(C)C)N(C)C	/	0.1

By substructure, those above with a Cl atom (two)
SMILES	LANA-nucl inh	Ab BasE inh
Oc1ccc(Cl)cc1	0.11&0.084	-0.3
O=S(=O)(c1ccc(Cl)cc1Cl)N1CCCC1c1cccnc1 (stereo not given)	0.55	/

Remaining list, next part:
SMILES	LANA-nucl inh	Ab BasE inh
COC(=O)C1=C(N)OC2=C(C(=O)CCC2)C12C(=O)Nc1ccccc12 (stereo not given)	0.31	-1.6
CC(=O)OC1CCC2(C#N)[C@H]3CCC4(C)C(C5=CC(=O)OC5)CCC4(O)[C@@H]3CCC2(O)C1 (stereo not given in full)	-0.26	-0.5
Cc1cc(OC(=O)c2cccs2)c2c3c(c(=O)oc2c1)CCC3	/	-1.4
CCOC(=O)/C=C(\O)C(F)(F)F (tested in a mixture with another compound)	0.19	/
COCc1cc(OC(=O)N(C)C)nc(COc2ccc(Cl)cc2)n1	/	-1.5
O=C(O)C12C3CCCC1C32c1ccccc1 (stereo not given)	1.1	-0.4
CC(C)(O)[C@@H]1[C@H]2OC(=O)[C@@H]1[C@]1(O)C[C@H]3O[C@]34C(=O)O[C@H]2[C@]14C	-0.36	-0.5
O=C1NC(=S)NC(=O)C1c1ccccc1	/	0.9
O=c1cccc2n1CC1CC2CN(Cc2nnc(-c3ccccc3F)o2)C1 (stereo not given)	-0.48	3.0
O=C1/C(=C\c2ccc(N3CCCC3)cc2)N2CCC1CC2	0.97	-2.4
COc1ccc(CNCC(=O)N2CCC3(CC2)OCCO3)cc1	-0.85	0.2
CCN(CC)P(=O)(c1nccn1C)N(CC)CC	/	-0.1
COC(=O)CN1C(=O)C2(C(C(=O)OC)=C(N)Oc3c2c(=O)oc2ccccc32)c2ccccc21 (stereo not given)	-0.75	1.2
O=C(Nc1cccc(Cl)c1)OC1CN2CCC1CC2 (stereo not given)	0.3	/
Clc1ccc(CN2CCCCC2)cn1	1.9	/
CN1CCN(C(=O)Cc2ccccc2)CC1	-0.13	1.2
O=C(N1CC2CC(C1)c1cccc(=O)n1C2)C(F)(F)F (stereo not given)	-0.2	0.0
O=C(Cn1ncc2c3ccccc3n(Cc3ccccc3F)c2c1=O)N1CCC2(CC1)OCCO2	-0.45	-0.4
CC1(C)CN=C(NCc2ccccc2Cl)S1	0.36	1.1
C[C@H]1O[C@@H](OC2CC[C@]3(C=O)[C@H]4CC[C@]5(C)[C@@H](C6=CC(=O)OC6)CC[C@@]5(O)[C@@H]4CC[C@]3(O)C2)C[C@H](O)[C@@H]1O (stereo not given in full)	2	-3.8
Cc1nc2ccccc2c(C)c1CC(=O)N1CCN(CCOc2ccccc2)CC1	/	1.8
FC(F)(F)c1cccc(C2NCCc3[nH]cnc32)c1 (stereo not given)	-0.72	/
NCCc1ccncc1	-0.066	1.9
Cc1nn(Cc2ccccc2Cl)c(C)c1C(=O)OCC(=O)Nc1sccc1C(N)=O	/	0.1
O=c1c2ccccc2nc(SC(F)F)n1-c1ccccc1	/	-5.5

Single records, as listed above:
CC1(C)CN=C(NCc2ccccc2Cl)S1 is listed as LANA-nucl inh: 0.36; Ab BasE inh: 1.1
COCc1cc(OC(=O)N(C)C)nc(COc2ccc(Cl)cc2)n1 is listed as LANA-nucl inh: /; Ab BasE inh: -1.5

(list continues)
SMILES	LANA-nucl inh	Ab BasE inh
c1ccc(-c2ccc(C3NN=C4C5CCN(CC5)C43)cc2)cc1 (stereo not given)	0.28	/
CN(C)CCC(=O)c1ccc(Br)cc1	/	0.8
COc1ccc(N2CCN(CCN)CC2)cc1	-0.85	-0.6
CC1(C)CC(C)(O)P(C)(=O)O1 (stereo not given)	/	4.5
COC(=O)CN1C(=O)C2(C(C(=O)OC)=C(N)Oc3ccccc32)C2=C1CCCC2=O (stereo not given)	-1.3	-0.2
S=C=Nc1ccccn1	/	3.6
C[C@H]1C(=O)O[C@@H]2CCN3CC=C(COC(=O)[C@](C)(O)[C@]1(C)O)[C@H]23	-0.23&0.31	0.6&-1.9
O=C1NC(=O)C(O)(c2c(O)c3ccccc3n(Cc3ccccc3)c2=O)C(=O)N1	0.35	0.8
CN1CCc2nc3sc4c(=O)[nH]c(=O)[nH]c4c3cc2C1	-0.38	4.6
COC1=CC(=O)OC(/C=C/c2ccccc2)C1 (stereo not given)	-0.17	-1.7
O=C1NC(=O)N(CCc2ccc(F)cc2)C(=O)/C1=C\c1ccc(O)c(O)c1	0.22	2.0
CN1C2CCCC1CC(=O)C2	0.35	-0.3
CC1CCCN(CC(=O)c2ccccc2F)C1 (stereo not given)	/	0.2
CC(=O)OCC1=C(C(=O)O)N2C(=O)[C@@H](N)[C@H]2SC1	0.29	-1.6
COC(C)(C)CCC[C@H](C)C/C=C/C(C)=C/C(=O)OC(C)C	-0.47	-1.6
O=S(=O)(c1ccccc1)N1CCCC1c1cccnc1 (stereo not given)	-1.1	/
CCOC(=O)c1c(C)n(C(C)C)c2ccc(OC(=O)c3ccco3)cc12	-0.28	0.7
CC[C@@]1(O)C[C@H](O)c2c(cc3c(c2O)C(=O)c2c(O)ccc(O)c2C3=O)[C@H]1C(=O)OC	-1.3	4.2
c1ccc(C2N3CCCN2CC3)cc1 (stereo not given)	/	-0.9
O=C1C=CC[C@H]2[C@@H]3CCCN4CCC[C@H](CN12)[C@H]34	0.3	0.8
Cc1cccc(C)c1NC1=NCCCS1	0.0025&0.44&-0.22&-1.2	0.2&0.9
CN1CCC(N2CCCCC2)CC1	0.23	1.3
CN(C)CCN(C)C	/	1.1
Cc1ccc(C=C(C#N)C#N)o1	-0.56	3.6
O=c1oc2ccccc2c(O)c1Cc1c(O)c2ccccc2oc1=O	0.41&-0.44&-0.071	0.7&-1.0

Compounds shown so far that contain an NH in an aromatic ring:
SMILES	LANA-nucl inh	Ab BasE inh
CCOC(=O)C1=C(N)Oc2n[nH]c(C)c2C12C(=O)N1c3c(cc(C)cc32)C(C)CC1(C)C (stereo not given)	0.55	0.0
CC(C)c1ccc(-n2c(=O)[nH]c3ccccc3c2=O)cc1	/	3.0
FC(F)(F)c1cccc(C2NCCc3[nH]cnc32)c1 (stereo not given)	-0.72	/
CN1CCc2nc3sc4c(=O)[nH]c(=O)[nH]c4c3cc2C1	-0.38	4.6

Continued.
SMILES	LANA-nucl inh	Ab BasE inh
Cn1c(C(=O)O)c(CC(=O)N2CCN(Cc3ccccc3)CC2)c2ccccc21	-1.1	0.7
CN(C)C1(c2nnnn2CCOC(=O)Nc2ccc(Cl)cc2)CCCCC1	/	1.2
CC[C@@H](C)C(=O)O[C@H]1[C@H](O)[C@H]2[C@@H](CN3C[C@@H](C)CC[C@H]3[C@@]2(C)O)C2C[C@]34O[C@@]5(O)[C@@H](OC(=O)C(C)(O)CC)CC[C@@]3(C)[C@@H]5[C@@H](OC(C)=O)[C@@H](OC(C)=O)[C@H]4[C@@]21O (stereo not given in full)	0.078	-0.7
O=C(Cc1ccccc1)N1CCN(C2CCCC2)CC1	0.37	2.1
CCn1c2ccccc2c2cc(CN3CCN(C)CC3)ccc21	-0.07	3.0
NS(=O)(=O)c1ccc(-c2ccc(C=C3C(=O)NC(=S)NC3=O)o2)cc1	0.18	-4.7
COc1ccc2c(c1)c(C(=O)O)c(C)n2C(C)C	-1.7	1.7
O=c1cccc2n1CC1CC2CN(CC(O)COc2ccccc2)C1 (stereo not given)	-0.8	1.0
O=c1oc(-c2ccc(F)cc2)nc2ccccc12	-0.92	1.2
COc1ccc(C2N3CCCN23)cc1 (stereo not given)	-0.88	0.9
CN1CCc2cc3c(cc2[C@H]1[C@@H]1OC(=O)c2c1ccc1c2OCO1)OCO3	0.081	-1.4
CN1C(=O)N(C)C(=O)C(CCc2ccncc2)(CCc2ccncc2)C1=O	0.2	3.0
CCC(=O)OC(Cc1ccccc1)(c1ccccc1)C(C)CN(C)C (stereo not given)	0.22	0.7
C[C@@H]1O[C@@H](O[C@H]2CC[C@]3(C=O)C4CC[C@]5(C)[C@@H](C6=CC(=O)OC6)CC[C@]5(O)C4CC[C@]3(O)C2)[C@H](O)[C@H](O)[C@H]1O (stereo not given in full)	-0.5	-0.5
CCCCC[C@@H](/C=C/C=C\C/C=C\C/C=C\CCCC(=O)O)OO	-0.16	1.4
Cc1ccccc1-c1nc2ccccc2c(=O)n1C	0.72	-0.8
CC(=O)N1CCN(CC(=O)Nc2ccc(C#N)c(Cl)c2)CC1	/	-1.7
Cc1cc(Br)c(O)c(Br)c1	/	-0.3
CC(O)CNC1CCC2CCCCC2C1 (stereo not given)	/	1.2
c1cc(CN2CCNCC2)cs1	/	1.6
Cc1cc(O)c(C(=O)Nc2ccc(Cl)c(Cl)c2)c(=O)n1CC1CCCO1 (stereo not given)	-0.8	2.8
O=C1NC(=O)N(CCC2=CCCCC2)C(=O)/C1=C/c1cnc(-c2ccccc2)nc1	-0.21	1.9
COC1=CC23CCN(C)C(Cc4ccc(OC)c(O)c42)C3=CC1=O (stereo not given)	0.78	-1.4
COc1ccn(C)c(=O)c1C#N	0.58	-0.8
Cc1ccccc1CCN	/	-10
